Bioassay records: PubChem, ICCB-Longwood Screening Facility, Harvard Medical School
Ab BasE inh: blocks the Acinetobacter baumannii siderophore enzyme BasE | inhibition, % (no concentration beside the values) | 84,000 tested, 0.1% active | purified BasE, fluorescence polarization binding displacement;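 active = both replicates above 25% with normal brightness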;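 note: 0% = negative plate control signal and 100% = positive plate control signal; stock transfer was 100 nL into about 30 µL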
KSHV LANA nucl: inhibitors of KSHV LANA binding to nucleosomes. FITC-LANA1-23 / chicken nucleosome fluorescence polarization; active compounds read low. z-score (concentration not given with the values). 51,000 tested, 0.3% active;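 active = both repeat wells score below -2 in polarization z-score versus plate sample wells, excluding overly bright wells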;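 note: 100 nL library stock added to about 30 µL; numbers are from one replicate; some results filed as inactive read as strong as hits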
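test system = FITC-LANA peptide and chicken nucleosomes | amount = 240 nM purified chicken nucleosomes (480 nM peptide binding sites), final | reagent = 50 nM FITC-LANA1-23 probe | medium = TEN-BT buffer, pH 7.5 | doses = single compound addition by pin transfer, 100 nL per well | timing = 10–45 min, room temperature | detection = fluorescence polarization | repeats = duplicate plates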
Active calls of the source: *; · = no result given; & = joins results of further samples. This is a subset; the hit share may differ from the screen's.

SMILES	Ab BasE inh	KSHV LANA nucl
CC(=O)O[C@@H]1CC(O[C@@H]2C(C)OC(O[C@@H]3C(C)OC(OC4CC[C@@]5(C)[C@H](CC[C@]6(C)[C@]5(C)C[C@@H](O)[C@]5(C)[C@@H](C7=CC(=O)OC7)CC[C@@]56O)C4)C[C@H]3O)C[C@H]2O)OC(C)[C@H]1OC1OC(CO)[C@@H](O)[C@@H](O)[C@@H]1O (some centres not stated)	-0.3	-0.132
c1ccc(C23CC4CN(CCN(C4)C2)C3)cc1	0.9	0.151
Cn1cc(C(=O)OCC(=O)N2CCCC2)c2ccccc21	-2.7	·
C/C=C1/CN2CCC34C(=C(C(=O)OC)C1CC23)Nc1c(O)cccc14 (configuration not stated)	-1.1	-0.516
CCN(C(C)=O)c1cccc(-c2ccnc3c(C#N)cnn23)c1	·	-0.571
COC(=O)C1C2c3ccccc3OC1(C)N=c1s/c(=C\c3ccc(C)o3)c(=O)n12 (configuration not stated)	1.0	-2.01
Cn1nc(N)c2c1N=P(N1CCOCC1)(N1CCOCC1)N=C2c1ccccc1	1.3	·
O=C(O)CCCO	·	0.0185
CCN(CC)P1(=O)OC(c2ccc(F)cc2)=Nc2c1c(C)nn2-c1ccccc1 (configuration not stated)	0.1	·
C=CCNC(=O)c1c(N)n(Cc2ccc(OC)cc2)c2nc3ccccc3nc12	-4.7	·
COc1ccc(NC2=NCC(C)S2)cc1 (configuration not stated)	4.3	-0.983
Cn1c2ccccc2c2c(C(=O)N3CCC4(CC3)OCCO4)cn(C3CCCC3)c(=O)c21	2.1	-0.419
COc1ccc2c(c1)c(C(=O)OCC(N)=O)c(C)n2C1CCCCC1	0.9	·
Cc1cc(OCC(=O)N(C)C)c2c3c(c(=O)oc2c1)CCCC3	-1.6	·
CCC1=C(C)C(N2CCOCC2)=NP(N2CCOCC2)(N2CCOCC2)=N1	-0.2	·
CCC(C)N=Cc1c(O)[nH]c(=O)[nH]c1=O (configuration not stated)	2.0	·
O=S(=O)(c1ccc(O)cc1)c1ccc(O)cc1	66.3*	·
Cc1ccc2c(c1)C1CN(C)CCC1N2C(=O)c1ccc(Br)cc1 (configuration not stated)	1.5	·
COc1cccc2cc(-c3cc(=O)oc4cc(C)c(OC(=O)N(C)C)cc34)oc12	2.2	-0.469
O=S(=O)(c1ccc(F)cc1)N1CCCC1c1cccnc1 (configuration not stated)	·	-0.752

Continued; it opens with the 7 that closed the last part.
SMILES	Ab BasE inh	KSHV LANA nucl
Cc1cc(OCC(=O)N(C)C)c2c3c(c(=O)oc2c1)CCCC3	-1.6	·
CCC1=C(C)C(N2CCOCC2)=NP(N2CCOCC2)(N2CCOCC2)=N1	-0.2	·
CCC(C)N=Cc1c(O)[nH]c(=O)[nH]c1=O (configuration not stated)	2.0	·
O=S(=O)(c1ccc(O)cc1)c1ccc(O)cc1	66.3*	·
Cc1ccc2c(c1)C1CN(C)CCC1N2C(=O)c1ccc(Br)cc1 (configuration not stated)	1.5	·
COc1cccc2cc(-c3cc(=O)oc4cc(C)c(OC(=O)N(C)C)cc34)oc12	2.2	-0.469
O=S(=O)(c1ccc(F)cc1)N1CCCC1c1cccnc1 (configuration not stated)	·	-0.752
C[C@@H]1CC([C@H](O)CC2CC(=O)NC(=O)C2)C(=O)[C@@H](C)C1 (some centres not stated)	1.0	-0.761
CCOC(=O)c1cc(S(=O)(=O)N2CC3CC(C2)c2cccc(=O)n2C3)cn1C (configuration not stated)	-0.1	-0.696
Nc1c2c(nc3sc4c(c13)CCCC4)CCCC2	0.2	0.59
O=C1CC(c2cccnc2)Nc2ccc3ccccc3c21 (configuration not stated)	-8.3	0.167
CN1C2CCC1CC(OC(=O)C1(c3ccccc3)CCCC1)C2 (configuration not stated)	2.1	-0.671
CN1CC(CNC(=O)OCc2ccccc2)CC2c3cccc4c3c(cn4C)CC21 (configuration not stated)	-1.4	-0.986
COC(=O)C(c1ccccc1)C1CCCCN1 (configuration not stated)	·	0.0055
N#CCCNc1ccccc1	-2.4	·
CN(C)C(=O)Oc1nc(-c2ccc(Cl)cc2)cs1	·	-0.122
O=c1[nH]c(=S)[nH]c(O)c1-c1ccccc1	0.3	0.102
COc1ccc(C[C@H]2NC[C@H](O)[C@H]2OC(C)=O)cc1	-2.7	0.09
Cc1cccc2cc(C=C(C#N)C#N)c(Cl)nc12	0.4	-0.702
CN1CCC2(CC1)CC1CC3C=CC1(CN2)O3 (configuration not stated)	2.8	-0.635
Cc1ccc(C(=O)C2CN3CCC2CC3)cc1 (configuration not stated)	-1.6	0.132
COCc1c(CN)cnc(C)c1N	1.5	-0.269
COc1ccc(CCN(C)Cc2ccncc2)cc1OC	5.6	-0.301
CC(NC(C)(C)C)C(=O)c1cccc(Cl)c1 (configuration not stated)	-1.0&1.1	0.031&0.471&0.26&0.851&-0.788&0.778
C1=C(c2ccccc2)CCN(Cn2nnc(-c3ccccc3)n2)C1	-0.3	·
CC(=O)O[C@H]1CC[C@@]2(C)C(=CC[C@@H]3[C@@H]2CC[C@]2(C)C(=O)CC[C@@H]32)C1	1.4	-0.233
COCCNP(=O)(c1ccccc1)c1nc2ccccc2s1 (configuration not stated)	2.0	·

Some of these compounds in order of SMILES length, rising.
SMILES	Ab BasE inh	KSHV LANA nucl
COCc1c(CN)cnc(C)c1N	1.5	-0.269
Cc1ccc(C(=O)C2CN3CCC2CC3)cc1 (configuration not stated)	-1.6	0.132
O=C1CC(c2cccnc2)Nc2ccc3ccccc3c21 (configuration not stated)	-8.3	0.167
CN(C)C(=O)Oc1nc(-c2ccc(Cl)cc2)cs1	·	-0.122
CN1C2CCC1CC(OC(=O)C1(c3ccccc3)CCCC1)C2 (configuration not stated)	2.1	-0.671
C1=C(c2ccccc2)CCN(Cn2nnc(-c3ccccc3)n2)C1	-0.3	·
CN1CC(CNC(=O)OCc2ccccc2)CC2c3cccc4c3c(cn4C)CC21 (configuration not stated)	-1.4	-0.986

Next section
SMILES	Ab BasE inh	KSHV LANA nucl
Nc1ccc(Cl)cc1C(=O)c1ccccc1	0.0	-0.41
Cc1ccccc1C=C1C(=O)N(C)C(=S)N(C)C1=O	3.2	-1.36
Cc1ccc(-c2nc3ccccc3c(=O)n2-n2cccc2)cc1	1.3	-0.015
CC1CCN(CC(=O)c2cccc(Br)c2)CC1	1.4	·
CN(C)C(=O)Nc1ccc(Cl)cc1	2.9	·
CCNC(=O)[C@H]1O[C@@H](n2cnc3c(N)ncnc32)C(O)[C@H]1O (some centres not stated)	-1.7	0.088
CSc1nc2nc(C)c(CC(=O)N3CCN(Cc4ccc5c(c4)OCO5)CC3)c(C)n2n1	3.0	·
COc1cc(CNCCc2c[nH]c3ccccc23)cc(OC)c1O	0.3	-0.196
CCN(CC)C(=O)c1ccc(N(Cc2ccccc2Cl)S(C)(=O)=O)cc1	-2.3	·
CN(C)C(=O)Oc1ccc2nnc3ccnn3c2c1	1.6	·
Cc1ccc2nc(C)c3c(c2c1)OCN(CC1CCCO1)C3 (configuration not stated)	-1.0	·
CCN1CCN(C(=O)COc2ccc(S(=O)(=O)N(C)Cc3ccccc3)cc2)CC1	-1.9	-1
CCO/N=C/c1c[nH]c2c(CC)cccc12	-0.1	·
CN=C(Cl)c1ccco1	1.4	·
CCCN1CCC(N2CCC(O)CC2)CC1	1.0	-0.157
CCCCC/C=C\C/C=C\C/C=C\C/C=C\CCCC(=O)NCCO	-0.6	-0.221
CCOC(=O)c1cccc(NC(=O)CCc2nc(C3=CCN(C)CC3)no2)c1	-2.6	-1.06
CSc1nnc([C@@H](N)Cc2c[nH]c3ccccc23)o1	-0.2	0.847
CC(C)(C)NC(=O)CN1C2CCC1CC(O)(c1ccc(F)cc1)C2 (configuration not stated)	0.0	0.387
CC(CN)c1ccccc1 (configuration not stated)	0.4	·

Reformatted: entries from further up.
Nc1ccc(Cl)cc1C(=O)c1ccccc1
  Ab BasE inh: 0.0
  KSHV LANA nucl: -0.41
Cc1ccccc1C=C1C(=O)N(C)C(=S)N(C)C1=O
  Ab BasE inh: 3.2
  KSHV LANA nucl: -1.36

Next entries follow.
SMILES	Ab BasE inh	KSHV LANA nucl
CCc1ccc(CN2CCN(Cc3ccc(CC)cc3)CC2)cc1	0.5	·
CCOC(=O)C1C(C)C2C(=O)C=CCC2N1C (configuration not stated)	1.3	0.153
O1[As]2O[As]3O[As]1O[As](O2)O3	·	-0.728
CN1CC[C@]2(c3cccc(O)c3)Cc3nc4ccccc4cc3C[C@H]2C1	·	-0.952
CCN(CC)P(=S)(c1nc2ccccc2n1CC)N(CC)CC	0.6	·
O=C1CCN(CC(=O)c2ccc3cc[nH]c3c2)CC1	-0.6	0.242
c1ccc2c(CNCCc3c[nH]c4ccccc34)cccc2c1	-7.2	·
CCCCCc1cc(O)c2c(c1)OC(C)(C)[C@@H]1CCC(C(=O)O)=CC21 (some centres not stated)	-2.3	-0.879
CN1C(=O)[C@]23CC4=CC=C[C@H](O)[C@H]4N2C(=O)[C@@]1(CO)SS3	0.1	-1.16
CC1=CC(=O)NP(=O)(Oc2ccccc2)N1 (configuration not stated)	3.5	-0.984
CCCCCCCCCOc1ccc2[nH]cc(CCN)c2c1	·	-0.708
O=C(c1sc2ccccc2c1Cl)N1CCC2(CC1)OCCO2	-0.7	0.691
COC(=O)c1c(N)n(Cc2ccco2)c2nc3ccccc3nc12	0.3	·
CN(C)c1ccc(P(=O)(N(C)C)N(C)C)cc1	1.0	·
CC1(C)N=C(c2cccnc2)N(O)C1(O)c1ccccc1 (configuration not stated)	3.1	-0.324
CCOC(=O)C1=C(N)Oc2c(oc(CO)cc2=O)C12C(=O)N(CC(N)=O)c1ccccc12 (configuration not stated)	-4.0	1.33
Cc1ccccc1N1CCN(Cc2ccc(O)cc2)CC1	-2.1	-0.134
CN(C)C(=O)ONC(=O)Cc1ccccc1	·	0.737
CN(C)CC#Cc1ccc(C=C(C#N)C#N)cc1	-5.1	-0.141
O=c1cccc2n1CC1CC2CN(C(c2ccccc2)c2sc3ncnn3c2O)C1 (configuration not stated)	3.5	-0.621
CSc1ncccc1C1=N/C(=C\N(C)C)C(=O)O1	1.5	·
CCN(CC)P(=S)(c1ccc(/C=N/NC(N)=O)o1)N(CC)CC	-2.2	·
COc1cc2c(cc1OC)C(C(=O)N(C)c1ccc(Cl)cc1)C1CCCCN1C2=O (configuration not stated)	-0.7	-0.265
C=C1N[C@@H](Cc2ccc3[nH]cc(CCN(C)C)c3c2)CO1	·	0.155
O=C(O)C(c1c(O)c2ccccc2oc1=O)c1c(O)c2ccccc2oc1=O	9.3	·
N#CC(C#N)=Cc1ccc(F)cc1F	-1.5	0.218
Nc1n[nH]c(Cc2nc(N)n[nH]2)n1	2.6	0.262
CCn1cc(C(=O)c2ccccc2)c2ccccc21	-3.1	-1.74
C[N+]1([O-])[C@@H]2CC[C@H]1CC(OC(=O)C(CO)c1ccccc1)C2 (some centres not stated)	-1.6	-0.514
O=c1cccc2n1CC1CC2CN(C(=S)Nc2ccccc2)C1 (configuration not stated)	1.8	-1.14
Cc1[nH]c(=O)[nH]c(=O)c1C1N2CC3(C)CN1CC(C)(C2)C3=O (configuration not stated)	1.4	-0.394
O=C(c1ccccc1)C12CN3CN(CN(C3)C1)C2	-0.1	·
CNC(=O)O/N=C/c1nn(C)cc1Br	-1.2	0.342
Cc1nn(-c2ccccc2)c2c1C(c1ccsc1)SCC(=O)N2 (configuration not stated)	-0.7	-0.249
CCN(CC)P(=N)(N(CC)CC)N(CC)CC	1.8	·
CN1C(=O)C(=Cc2cn(CC(=O)NCc3ccco3)c3ccccc23)C(=O)N(C)C1=O	7.5	·
O=C1NC(=O)N(Cc2ccccc2)C(=O)/C1=C/c1ccc(O)cc1	2.0	-0.452
c1ccc2c(c1)[I+]c1ccccc1-2	2.9	0.319
O=c1c2ccccc2nc(CNCC2CCCO2)n1-c1ccc(F)cc1 (configuration not stated)	2.8	0.714
C#CCN(C)[C@H](C)Cc1ccccc1	-0.5&-2.1	0.083&0.0595&0.561&-0.328

Of the compounds above, these contain a COOH group.
SMILES	Ab BasE inh	KSHV LANA nucl
O=C(O)CCCO	·	0.0185
CCCCCc1cc(O)c2c(c1)OC(C)(C)[C@@H]1CCC(C(=O)O)=CC21 (some centres not stated)	-2.3	-0.879
O=C(O)C(c1c(O)c2ccccc2oc1=O)c1c(O)c2ccccc2oc1=O	9.3	·

Further results
SMILES	Ab BasE inh	KSHV LANA nucl
N#Cc1cc(F)c(N2CCNCC2)cc1Cl	-1.7	0.593
CCCCCCCCCCCCCCCC[n+]1ccccc1	1.5	1.61&-0.208
CN1CCc2cc3c(c4c2C1Cc1ccccc1-4)OCO3 (configuration not stated)	22.4	-3.19*
COc1ccc(CCNCc2ccccc2O)cc1	-8.4	·
CN=C1CN(O)C(c2ccccc2)=c2cc(Cl)ccc2=N1	·	-0.18
C[C@H](N)C(=O)N[C@@H](C)C(=O)N[C@@H](Cc1ccccc1)C(=O)CCl	1.4	0.335
O=c1cccc2n1CC1CC2CN(CC(O)CN2CC3CC(C2)c2cccc(=O)n2C3)C1 (configuration not stated)	-0.1	0.247
CCN(CC)C(=O)N[C@@H]1CC2c3cccc4[nH]cc(c34)CC2N(C)C1 (some centres not stated)	0.7	-0.838
CN1C(=O)Oc2ccc(Cl)cc2C1O (configuration not stated)	1.0	0.39
O=c1c2ccccc2[nH]c(=S)n1-c1ccccc1	-0.2&-0.7	-0.511&-0.211
O=C(O)CC[n+]1ccc(-c2cc[n+](CCC(=O)O)cc2)cc1	0.8	·
CC(C)(O)[C@H]1O[C@H]2CC[C@@]3(C)[C@@](O)(CC[C@H]4Cc5c([nH]c6ccccc56)[C@@]43C)C2=CC1=O	0.2	0.643
